High-throughput results as filed in PubChem BioAssay.
NPR1 antag: Natriuretic polypeptide receptor (hNpr1) antagonism - Primary qHTS; Atrial natriuretic peptide receptor 1 (Homo sapiens), P16066; HEK293 hNpr1 GloSensor cGMP, ANP-stimulated luminescence; Potency, µM (titrated, usually from 46.3 µM), for the others: at the top dose activity change, negative = inhibition, usual class: inhibitors; 1.6% of 76,000 active; active = well fitted inhibition curve with a large enough effect; inconclusive = small, poorly fitted or top-dose-only effect; inactive = no such curve, though single readings can be large or run the other way;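 also: nearly all actives have a fitted effect of over 60% in size; nearly all hits also lower the signal before the agonist is added; a reference antagonist and vehicle were the controls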
Target sequence (P16066 whole entry, looked up): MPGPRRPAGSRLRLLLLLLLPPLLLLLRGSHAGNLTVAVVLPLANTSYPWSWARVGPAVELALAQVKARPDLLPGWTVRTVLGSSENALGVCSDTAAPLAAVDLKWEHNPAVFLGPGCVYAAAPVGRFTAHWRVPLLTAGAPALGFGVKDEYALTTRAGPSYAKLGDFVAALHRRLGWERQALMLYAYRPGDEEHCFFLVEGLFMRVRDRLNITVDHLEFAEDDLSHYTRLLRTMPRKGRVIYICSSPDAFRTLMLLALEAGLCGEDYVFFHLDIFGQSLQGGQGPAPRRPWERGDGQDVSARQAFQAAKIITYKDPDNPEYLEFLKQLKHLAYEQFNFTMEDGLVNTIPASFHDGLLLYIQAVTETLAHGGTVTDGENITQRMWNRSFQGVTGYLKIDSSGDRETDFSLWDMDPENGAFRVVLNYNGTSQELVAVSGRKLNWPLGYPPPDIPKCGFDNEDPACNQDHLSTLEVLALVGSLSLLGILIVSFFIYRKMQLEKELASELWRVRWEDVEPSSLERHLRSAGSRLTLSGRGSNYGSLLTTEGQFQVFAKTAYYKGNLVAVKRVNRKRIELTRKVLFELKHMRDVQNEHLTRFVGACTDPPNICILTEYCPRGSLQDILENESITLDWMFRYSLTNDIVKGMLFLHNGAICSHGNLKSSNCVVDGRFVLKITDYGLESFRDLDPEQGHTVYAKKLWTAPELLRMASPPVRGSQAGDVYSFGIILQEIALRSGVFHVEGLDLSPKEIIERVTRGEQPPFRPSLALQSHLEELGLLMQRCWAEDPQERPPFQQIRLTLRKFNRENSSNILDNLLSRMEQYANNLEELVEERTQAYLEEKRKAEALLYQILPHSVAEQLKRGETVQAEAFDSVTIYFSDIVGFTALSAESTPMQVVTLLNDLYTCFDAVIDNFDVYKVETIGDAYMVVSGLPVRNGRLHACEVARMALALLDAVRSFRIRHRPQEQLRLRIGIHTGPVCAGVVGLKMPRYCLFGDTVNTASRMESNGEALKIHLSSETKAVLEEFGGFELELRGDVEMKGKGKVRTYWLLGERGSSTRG
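HEK293 cells stably expressing human Npr1 and cGMP GloSensor pGS-40F, loaded 2 h with 2% GloSensor reagent, given compound 30 min at room temperature. Luminescence read before and 20 min after 0.1 nM hNppA.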
Starred values were filed as active, the others as inactive; [ ] = dose if it differs, or a comment. % is scaled to controls: 0 for no effect and ±100 for the full control effect; potency is read from the fitted curve at half-maximal effect. An excerpt; rates above refer to the full screens.

`CC(C)(C)c1ccc(-c2cn(C[C@H]3CC4CCN3C[C@@H]4C(=O)N3CCOCC3)nn2)cc1` (some centres not stated) gave NPR1 antag -1%.
For Cc1cnc(C(=O)N2[C@H]3CC[C@@H]2c2cnc(-c4ccc(F)cc4)nc2C3)cn1 the results were NPR1 antag 6%.
`c1cc2nc(C3CCCNC3)[nH]c2cn1` (configuration not stated) gave NPR1 antag -11%[70.6 µM].
`O=C(NC1CCCCC1)N1C[C@@H]2C[C@H](C1)c1c(/C=C/c3ccc(Cl)cc3)ccc(=O)n1C2` gave NPR1 antag 1%.
COc1cc2c(cc1OCc1ccncc1)NC(=O)C21CCN(C(=O)C2CCC2)CC1 was read as NPR1 antag 0%[70.6 µM].
`CCN(CC)C[C@H]1CN2CC[C@H]1C[C@@H]2CNS(=O)(=O)c1ccc(Cl)cc1` gave NPR1 antag 2%[70.6 µM].
C=C[C@H]1CN2CC[C@H]1C[C@@H]2CNC(=O)Nc1cccc(C#N)c1 was read as NPR1 antag 1%[70.6 µM].
COc1cc2c(cc1OCc1ccccc1)NC(=O)C21CCN(c2ncccn2)CC1 was read as NPR1 antag -27%[70.6 µM].
`CCn1cc(S(=O)(=O)N2[C@H]3CC[C@@H]2c2cnc(-c4ccc(F)cc4)nc2C3)cn1` gave NPR1 antag -23%.
Screening Cn1nccc1C(=O)N1[C@H]2CC[C@@H]1c1cnc(-c3ccc(F)cc3)nc1C2 returned NPR1 antag inconclusive.
COc1cc2c(cc1Oc1ccccc1)NC(=O)C21CCN(C(=O)Cc2ccccc2)CC1 was read as NPR1 antag inconclusive.
For CC(=O)N1[C@H]2CC[C@@H]1c1cnc(-c3ccccc3)nc1C2 the results were NPR1 antag -1%.
Screening Cn1nccc1CN1CCCC2(CC(c3ccccn3)=NO2)C1 (configuration not stated) returned NPR1 antag 9%[70.6 µM].
Cc1noc(C)c1Cc1ccc(C(=O)N2[C@H]3CC[C@@H]2c2cnc(-c4ccccc4)nc2C3)o1 was read as NPR1 antag inconclusive.
`CCCS(=O)(=O)Nc1ccc(=O)n2c1[C@@H]1C[C@@H](CN(C(=O)COc3ccccc3)C1)C2` gave NPR1 antag -5%.

Random excerpt: three records from the list, in no set order.
For CC(=O)N1[C@H]2CC[C@@H]1c1cnc(-c3ccccc3)nc1C2 the results were NPR1 antag -1%.
`c1cc2nc(C3CCCNC3)[nH]c2cn1` (configuration not stated) gave NPR1 antag -11%[70.6 µM].
COc1cc2c(cc1OCc1ccncc1)NC(=O)C21CCN(C(=O)C2CCC2)CC1 was read as NPR1 antag 0%[70.6 µM].

Molecules listed so far that have a Cl atom, in the order listed:
`O=C(NC1CCCCC1)N1C[C@@H]2C[C@H](C1)c1c(/C=C/c3ccc(Cl)cc3)ccc(=O)n1C2` gave NPR1 antag 1%.
`CCN(CC)C[C@H]1CN2CC[C@H]1C[C@@H]2CNS(=O)(=O)c1ccc(Cl)cc1` gave NPR1 antag 2%[70.6 µM].

The results go on.
Cc1nc(C)c(C(=O)N2[C@H]3CC[C@@H]2c2cnc(-c4ccc(F)cc4)nc2C3)s1 was read as NPR1 antag 16µM*.
`CC(=O)Nc1ccc(-c2ccc(=O)n3c2[C@@H]2C[C@@H](CN(C(=O)C(C)(C)C)C2)C3)cc1` gave NPR1 antag 3%[70.6 µM].
`COc1cc2c(cc1OCC1CC1)NC(=O)C21CCN(Cc2nccs2)CC1` gave NPR1 antag -12%[70.6 µM].
COc1cc2c(cc1Oc1cccc(N(C)C)c1)NC(=O)C21CCN(c2ncc(F)cn2)CC1 was read as NPR1 antag -19%.
`CC1CCN(C[C@H]2CN3CC[C@H]2C[C@@H]3CNC(=O)Nc2ccsc2)CC1` gave NPR1 antag 1%[70.6 µM].
Screening COc1cc2c(cc1Oc1ccccc1)NC(=O)C21CCN(c2cnccn2)CC1 returned NPR1 antag -21%[70.6 µM].
`COc1cc2c(cc1OC1CCCC1)NC(=O)C21CCN(c2ncccn2)CC1` gave NPR1 antag 0%[70.6 µM].
`O=C1Nc2ccccc2O[C@H]2C[C@@H]1N(Cc1ccccn1)C2` gave NPR1 antag 3%[70.6 µM].
For C#C[C@H]1CN2CC[C@H]1C[C@@H]2COC(=O)Nc1ccc(Br)cc1 the results were NPR1 antag -3%[70.6 µM].
O=C(O)C(=O)N1C[C@@H]2C[C@H](C1)c1ccc(NS(=O)(=O)c3ccccc3)c(=O)n1C2 was read as NPR1 antag 1%[70.6 µM].
Screening COc1cc2c(cc1CCc1ccccc1)N([S+](=O)([O-])c1cn(C)cn1)CC21CCN(C(C)=O)CC1 returned NPR1 antag 1%.
Screening CN(C[C@H]1CN2CC[C@H]1C[C@@H]2CNC(=S)NCc1ccco1)c1ccccc1 returned NPR1 antag 2%[70.6 µM].
Screening O=c1ccc(-c2cncnc2)c2n1C[C@H]1C[C@@H]2CN(S(=O)(=O)c2ccccc2)C1 returned NPR1 antag 3%[70.6 µM].
Screening C#C[C@H]1CN2CC[C@H]1C[C@@H]2COC(=O)Nc1ccc(OC(F)(F)F)cc1 returned NPR1 antag inconclusive.
COc1ccc(CC(=O)N2[C@H]3CC[C@@H]2c2cnc(-c4ccccc4)nc2C3)cc1OC was read as NPR1 antag 3%.
Screening COc1ccc2c(c1)C1(CCN(C(=O)C(C)(C)C)C1)C(=O)N2C (configuration not stated) returned NPR1 antag -7%.
Screening C#CCN(C)C[C@H]1CN2CC[C@H]1C[C@@H]2CNS(=O)(=O)c1ccc(Cl)cc1 returned NPR1 antag -9%[70.6 µM].
For COc1ccc(NC(=O)OC[C@H]2C[C@@H]3CCN2C[C@@H]3c2cc(-c3ccccc3OC)nn2C)cc1 the results were NPR1 antag -3%.
COc1ccc(C(=O)N2C[C@@H]3C[C@H](C2)c2c(-c4ccc(Cl)cc4)ccc(=O)n2C3)cc1 was read as NPR1 antag -1%[70.6 µM].
CN1CCN([C@H]2[C@@H]3OC[C@@H](O3)[C@@H](NCc3ccccn3)[C@@H]2O)CC1 was read as NPR1 antag 8%[70.6 µM].
Screening C#C[C@H]1CN2CC[C@H]1C[C@@H]2CNC(=O)Nc1cc(OC)cc(OC)c1 returned NPR1 antag 0%[70.6 µM].
Cc1cc(CN2CCC3(C2)C(=O)N(C)c2ccccc23)no1 (configuration not stated) was read as NPR1 antag 0%[70.6 µM].
For O=c1ccc(-c2ccc(Cl)cc2)c2n1C[C@H]1C[C@@H]2CN(S(=O)(=O)c2ccccc2)C1 the results were NPR1 antag 1%.
COc1ccc(-c2cc([C@H]3CN4CC[C@H]3C[C@@H]4CNCc3ccccn3)n(C)n2)cc1 was read as NPR1 antag 0%[70.6 µM].
Screening Cn1cc(C(=O)N2[C@H]3CC[C@@H]2c2cnc(-c4ccc(F)cc4)nc2C3)cn1 returned NPR1 antag 0%.
Screening COc1cc2c(cc1OCc1ccccc1)N(C(=O)C(C)C)CC21CCN(C)CC1 returned NPR1 antag 7%[70.6 µM].
`NC(=O)C1=NO[C@@H]2CN(CC3CCCCC3)C[C@H]12` gave NPR1 antag 1%[70.6 µM].
Screening O=C(c1ccc(F)cc1)N1C[C@@H]2C[C@H](C1)c1c(-c3cncnc3)ccc(=O)n1C2 returned NPR1 antag 2%[70.6 µM].
For COc1ccc2c(c1)C1(CCN(C(=O)Nc3ccc(OC)c(OC)c3)C1)C(=O)N2 (configuration not stated) the results were NPR1 antag -1%.
Screening O=C(c1ccc2c(c1)OCO2)N1[C@H]2CC[C@@H]1c1cnc(-c3ccc(F)cc3)nc1C2 returned NPR1 antag -11%.
`O=C(Cc1ccc(F)cc1)N1CCN(C2CCN(Cc3cccnc3)C2=O)CC1` (configuration not stated) gave NPR1 antag -6%.
For CC(C)(C)c1ccc(-c2cn(C[C@H]3CC4CCN3C[C@@H]4C(=O)NC3CCCCC3)nn2)cc1 (some centres not stated) the results were NPR1 antag -1%.
CC(=O)Nc1ccc(-c2ccc(=O)n3c2[C@@H]2C[C@@H](CN(C(=O)c4ccco4)C2)C3)cc1 was read as NPR1 antag 4%[70.6 µM].
CC[C@H]1CN2CC[C@H]1C[C@@H]2CNC(=O)Nc1cccc(C(F)(F)F)c1 was read as NPR1 antag -5%[70.6 µM].
For O=C1NC[C@H]2CN(Cc3nccs3)CCN12 the results were NPR1 antag 2%[70.6 µM].
Screening O=C(NCc1ccc(F)cc1)[C@H]1CN2CC[C@H]1C[C@@H]2Cn1cc(C2(O)CCCC2)nn1 returned NPR1 antag -3%[70.6 µM].
Screening COc1cc2c(cc1OCc1ccncc1)NC(=O)C21CCN(c2ncc(F)cn2)CC1 returned NPR1 antag 20µM*.
`COc1ccc2c(c1)C1(CCN(C(=O)Nc3ccc4c(c3)OCCO4)C1)C(=O)N2C` (configuration not stated) gave NPR1 antag -15%.
For O=C(O)CCC(=O)N1C[C@@H]2C[C@H](C1)c1c(-c3cc4ccccc4s3)ccc(=O)n1C2 the results were NPR1 antag 3%[70.6 µM].
CCCS(=O)(=O)N1C[C@@H]2C[C@H](C1)c1ccc(-c3ccc4ccccc4c3)c(=O)n1C2 was read as NPR1 antag 3%[70.6 µM].
Screening CCS(=O)(=O)N1[C@H]2CC[C@@H]1c1cnc(C)nc1C2 returned NPR1 antag -2%.
For C=C[C@H]1CN2CC[C@H]1C[C@@H]2CNC(=O)CC(C)(C)C the results were NPR1 antag 5%[70.6 µM].
`COc1cc2c(cc1Oc1cccc(N(C)C)c1)NC(=O)C21CCN(Cc2ccccc2)CC1` gave NPR1 antag 11µM*.
`COc1cc2c(cc1OCc1ccncc1)NC(=O)C21CCN(C(C)=O)CC1` gave NPR1 antag -4%[70.6 µM].
For CN1[C@@H](CCC(=O)NCc2cccnc2)CNC(=O)[C@H]2NCC[C@H]21 the results were NPR1 antag 5%[70.6 µM].

An excerpt from above in order of SMILES length, highest first:
CC(=O)Nc1ccc(-c2ccc(=O)n3c2[C@@H]2C[C@@H](CN(C(=O)c4ccco4)C2)C3)cc1 was read as NPR1 antag 4%[70.6 µM].
`COc1cc2c(cc1OCc1ccncc1)NC(=O)C21CCN(C(C)=O)CC1` gave NPR1 antag -4%[70.6 µM].
For O=C1NC[C@H]2CN(Cc3nccs3)CCN12 the results were NPR1 antag 2%[70.6 µM].

Carrying on.
`COc1ccc(-c2cc([C@H]3CN4CC[C@H]3C[C@@H]4CNC(=O)c3cccs3)n(C)n2)cc1` gave NPR1 antag 1%.
`COc1ccc(OC)c(S(=O)(=O)NC[C@H]2C[C@@H]3CCN2C[C@@H]3c2cc(-c3ccc4ccccc4c3)nn2C)c1` gave NPR1 antag 1%.
For COc1cc(C(=O)NC[C@H]2C[C@@H]3CCN2C[C@@H]3c2cc(-c3ccco3)nc(C)n2)cc(OC)c1OC the results were NPR1 antag -20%.
For CC[C@H]1CN2CC[C@H]1C[C@@H]2CNC(=O)CSCC(=O)O the results were NPR1 antag -1%[70.6 µM].
`C=C[C@H]1CN2CC[C@H]1C[C@@H]2CNS(=O)(=O)Cc1ccccc1` gave NPR1 antag 2%[70.6 µM].
For CC(C)CC(=O)N1CCC2(CC1)NCc1ccccc1-n1ccnc12 the results were NPR1 antag 5%.
For COc1cncc(CN2CCC3(CC2)C(=O)Nc2cc(OCC4CC4)c(OC)cc23)c1 the results were NPR1 antag -1%[70.6 µM].
`COc1ccc(CN(C)CC2[C@H]3CNC[C@@H]23)c2cccnc12` (some centres not stated) gave NPR1 antag 0%.
CC[C@H]1CN2CC[C@H]1C[C@@H]2CNC(=O)Nc1ccc(C(C)=O)cc1 was read as NPR1 antag -1%[70.6 µM].
COc1cc2c(cc1OCC1CC1)NC(=O)C21CCN(CCC(C)C)CC1 was read as NPR1 antag 3%[70.6 µM].
Screening CN1Cc2ccccc2-n2ccnc2C12CCN(C(=O)c1ccc(F)c(F)c1)CC2 returned NPR1 antag 2%.
O=C(NC1CCCCC1)N1C[C@@H]2C[C@H](C1)c1c(-c3cccs3)ccc(=O)n1C2 was read as NPR1 antag 8%[70.6 µM].
Screening Cc1nc(-c2ccc(N(C)C)cc2)cc([C@H]2CN3CC[C@H]2C[C@@H]3COC(=O)NC(C)C)n1 returned NPR1 antag 2%.
Screening COc1ccc(C(=O)N2CCC3(CC2)C(=O)Nc2cc(OCC4CC4)c(OC)cc23)cc1 returned NPR1 antag 0%[70.6 µM].
`COc1ccc(-c2cc([C@H]3CN4CC[C@H]3C[C@@H]4CNC(=O)C3CCCCC3)n(C)n2)cc1` gave NPR1 antag -10%.
For CCN(CC)C[C@H]1CN2CC[C@H]1C[C@@H]2CNC(=O)NC(C)C the results were NPR1 antag 5%[70.6 µM].
Screening CCNC(=O)NC[C@H]1C[C@@H]2CCN1C[C@@H]2c1cc(-c2ccccc2)nc(C)n1 returned NPR1 antag 2%[70.6 µM].
COc1ccccc1-c1cc([C@H]2CN3CC[C@H]2C[C@@H]3CNS(=O)(=O)c2ccc(NC(C)=O)cc2)n(C)n1 was read as NPR1 antag 2%.
Screening C=C[C@H]1CN2CC[C@H]1C[C@@H]2CNC(=O)c1ccc(C(F)(F)F)cc1 returned NPR1 antag -3%[70.6 µM].
CCn1nccc1C(=O)N1[C@H]2CC[C@@H]1c1cnc(-c3ccc(F)cc3)nc1C2 was read as NPR1 antag 6.3µM*.
`CCCNC(=O)OC[C@H]1C[C@@H]2CCN1C[C@@H]2c1cc(-c2ccccc2)nn1C` gave NPR1 antag 0%[70.6 µM].
Screening O=C1Nc2ccccc2C12CCN(Cc1cccnc1)C2 (configuration not stated) returned NPR1 antag 0%[70.6 µM].
`Cn1nccc1C(=O)N1[C@H]2CC[C@@H]1c1cnc(-c3ccccc3)nc1C2` gave NPR1 antag inconclusive.
Screening Cc1ccccc1S(=O)(=O)N1[C@H]2CC[C@@H]1c1cnc(-c3ccc(F)cc3)nc1C2 returned NPR1 antag inconclusive.
CC(C)(C)c1nc(CN2CCC3(CC2)C(=O)Nc2ccccc23)no1 was read as NPR1 antag -11%.
Cc1ncc2c(n1)C[C@@H]1CC[C@H]2N1C(=O)CC1CCCCC1 was read as NPR1 antag -1%.
CCN(C1CCOCC1)C1CNC1 was read as NPR1 antag -3%.
CN1C(=O)[C@H]2CN(Cc3ccccc3)C[C@H]2C1=O was read as NPR1 antag 1%.
